gsp ag: qHTS for Agonist of gsp, the Etiologic Mutation Responsible for Fibrous Dysplasia/McCune-Albright Syndrome: qHTS | Potency, µM (series often up to 76.9 µM), inactives show top-dose activation (cAMP increase), hits mostly activators | gsp mutant cells, cAMP HTRF, 30 min; control for the full effect not named in the record | AID 624287, 2012 | 340,000 tested, 0.13% active; active = well fitted activation curve with a large enough effect; inconclusive = small, poorly fitted or top-dose-only effect, or another doubt; inactive = no such curve, though single readings can be large or run the other way; cell line not stated here;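 also: phosphodiesterase inhibitor Ro 20-1724 added with compounds to block cAMP breakdown; potency is read from the fitted curve at half-maximal effect; nearly all actives have a fitted effect of over 60% in size; about a fifth of the inactives were tested at one dose only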
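Cells stably selected in G418 were plated at 2000/well, grown 16-24 hr, then given compounds in DMSO with the PDE inhibitor […] (300 uM solution added) for 30 min at 37C; cAMP was read by HTRF.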
ClpP mod: qHTS Assay for Activators of ClpP; ATP-dependent Clp protease proteolytic subunit (Bacillus subtilis (strain 168)), P80244; Potency, µM (titrated, usually from 57.5 µM), inactives show at the highest dose activity change, negative = active; 340,000 tested, 1.9% active; purified B. subtilis ClpP, FRET peptide cleavage, 20 min; active = well fitted falling curve with a large enough effect; inconclusive = small, poorly fitted or top-dose-only effect; inactive = no such curve, though single readings can be large or run the other way; also: potency is read from the fitted curve at half-maximal effect; the source files actives as falling curves though it sought activators and does not explain the sign; nearly all actives have a fitted effect of over 65% in size; many hits overshoot -100%
Target sequence (P80244 whole entry, looked up): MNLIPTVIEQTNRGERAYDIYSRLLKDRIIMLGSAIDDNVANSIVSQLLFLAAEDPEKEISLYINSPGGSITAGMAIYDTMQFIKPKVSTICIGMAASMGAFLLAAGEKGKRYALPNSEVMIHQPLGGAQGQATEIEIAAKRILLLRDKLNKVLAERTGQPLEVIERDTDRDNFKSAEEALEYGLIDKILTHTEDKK
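ClpP 10 microg/mL final, pH 8 Tris/KCl buffer with BSA, glycerol, Tween-20; compound pinned in; FRET-FV substrate; RT 20 min; Ex320/Em430; ΔFRET vs ADEP 5.8 microM, DMSO, no enzyme.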
TRPV1 PAM: HTS Assay for Compounds that Act as Potentiators of the Vanilloid Receptor 1 | TRPV1-expressing cells, Fluo-8 calcium influx, capsaicin EC20 potentiation; host cell line not named in the record; control for the full effect not named in the record | potentiation, % at 8.33 µM | 320,000 tested, 0.02% active | AID 540277, 2011; active means potentiation above 80%; inconclusive means 30% to 80%; inactive means below 30%; also: 0% is about no effect
Target sequence (Q8NER1 whole entry, looked up): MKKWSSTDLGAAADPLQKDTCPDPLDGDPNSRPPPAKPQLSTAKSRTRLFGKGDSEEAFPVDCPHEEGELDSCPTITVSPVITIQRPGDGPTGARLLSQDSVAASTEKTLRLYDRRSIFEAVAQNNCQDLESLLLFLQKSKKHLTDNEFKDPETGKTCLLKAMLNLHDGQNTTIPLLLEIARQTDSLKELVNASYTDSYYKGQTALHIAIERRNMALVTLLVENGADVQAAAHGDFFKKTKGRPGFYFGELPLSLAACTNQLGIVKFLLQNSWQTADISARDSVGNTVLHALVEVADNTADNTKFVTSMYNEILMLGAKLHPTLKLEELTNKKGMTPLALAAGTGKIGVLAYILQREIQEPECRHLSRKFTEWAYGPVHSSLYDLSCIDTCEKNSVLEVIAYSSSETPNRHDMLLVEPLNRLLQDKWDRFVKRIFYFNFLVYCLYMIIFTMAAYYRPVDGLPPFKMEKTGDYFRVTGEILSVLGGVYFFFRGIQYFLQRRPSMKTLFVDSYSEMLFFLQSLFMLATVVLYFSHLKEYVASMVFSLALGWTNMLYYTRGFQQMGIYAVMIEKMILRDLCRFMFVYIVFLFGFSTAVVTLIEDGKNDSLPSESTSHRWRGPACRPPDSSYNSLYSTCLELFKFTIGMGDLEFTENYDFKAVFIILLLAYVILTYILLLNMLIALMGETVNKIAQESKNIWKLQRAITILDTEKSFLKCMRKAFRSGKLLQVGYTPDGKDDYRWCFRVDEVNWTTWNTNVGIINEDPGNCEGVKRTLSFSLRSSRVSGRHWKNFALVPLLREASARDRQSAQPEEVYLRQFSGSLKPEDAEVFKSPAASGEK
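Cells expressing TRPV1 were dye-loaded with Fluo-8 and read kinetically: 10 s baseline, 3 min after compound (agonist portion), then 2 min after EC20 capsaicin (allosteric enhancer portion). Calcium-bound dye fluorescence at 480/520 nm.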
Menin MLL FP FL: qHTS Assay for Inhibitors Targeting the Menin-MLL Interaction in MLL Related Leukemias: Competition With Fluorescein Labeled MLL-derived Peptide; Fluorescence polarization, fluorescein-MLL peptide displacement from menin; FP activity change, % at 61.4 µM; 290,000 tested, under 10 active; inconclusive = falling polarisation curve, or a change in total fluorescence; inactive = total fluorescence flat and polarisation flat or rising; no compound was filed as active; the % refers to the polarisation; negative = inhibition;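 also: % of control where 0% means no effect; inhibitors lower the polarisation; unlabelled MLL peptide was the positive control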
Sfp PPTase inh: qHTS Assay for Inhibitors of Bacillus subtilis Sfp phosphopantetheinyl transferase (PPTase) | AID 1490, 2009 | Biochemical Sfp PPTase activity, qHTS | Potency, µM, inactives show max response, negative = inhibition, actives largely listed as inhibitors | 310,000 tested, 3.5% active | 4'-phosphopantetheinyl transferase ffp (Bacillus subtilis), Q9F4F7; active = well fitted inhibition curve with a large enough effect; inconclusive = small, poorly fitted or top-dose-only effect, or another doubt; inactive = no such curve, though single readings can be large or run the other way;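 also: the enzyme is Sfp with the accession as filed and its product quenches rhodamine fluorescence; potency is read from the fitted curve at half-maximal effect; 0% = enzyme reaction without inhibitor and -100% = no enzyme wells; top concentration of the series not given in the record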
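Compounds were incubated with enzyme (final 15 nM) for 15 min at room temperature before substrate addition started the reaction. Fluorescence at 525 nm excitation, 598 nm emission was recorded immediately and after 30 minutes.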
TRPML1 inh: qHTS for Inhibitors of the Human Mucolipin Transient Receptor Potential 1 (TRPML1); activity change, negative = inhibition, % (concentration not given with the values); TRPML1-inducible cells, Ca2+ dye fluorescence, FDSS; active compounds read low; inhibition of EC80 agonist-evoked calcium signal; Mucolipin-1 (Homo sapiens), Q9GZU1; 390,000 tested, 0.02% active; AID 624415, 2012; in the data active means activity change below about -50%; inconclusive means about -30% to -50%; inactive means above about -30%;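 also: stimulus is agonist 54-4 at its EC80 concentration; % is scaled to controls: 0 for no effect and ±100 for the full control effect; the text of the record puts the active cut at -80%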
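Tet-induced TRPML1-DL cells loaded with Ca8 no-wash calcium dye were read kinetically on FDSS. Compound addition was followed by EC80 agonist 54-4 (4 uM final); inhibition was read over 110 s.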
gsp antagonist: qHTS for Antagonists of gsp, the Etiologic Mutation Responsible for Fibrous Dysplasia/McCune-Albright Syndrome: qHTS; Potency, µM (doses to about 76.9 µM), inactives show top-dose activity change, negative = inhibition, most hits filed as inhibitors; gsp-mutant cells, cAMP HTRF, 30 min; control for the full effect not named in the record; 340,000 tested, 0.4% active; AID 624288, 2012; active = falling curve of any shape with a large fitted effect; inconclusive = falling curve, mostly with a smaller effect; inactive = flat or rising curve; cell line not stated here;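 also: intracellular cAMP measured with PDE inhibitor Ro 20-1724 present during compound exposure; potency is read from the fitted curve at half-maximal effect; % is scaled to controls: 0 for no effect and ±100 for the full control effect; nearly all actives have a fitted effect of over 65% in size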
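G418-selected cells were plated in DMEM/10% FBS for 16-24 h at 37C, then treated with compounds plus the PDE inhibitor […] (300 uM solution added) for 30 min at 37C. Intracellular cAMP was measured by HTRF after 30 min lysis at room temperature.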
* hit, by the source's call; u = inconclusive; x = not tested or not shown; & = joins results of further samples; [ ] = another dose, or the depositor's remark.

SMILES	gsp ag	ClpP mod	TRPV1 PAM	Menin MLL FP FL	Sfp PPTase inh	TRPML1 inh	gsp antagonist
Cc1cnc(C(=O)OCC(=O)N2CCN(C(=O)c3ccco3)CC2)cn1	-15%	-1.9%	8	0.5	13%	17	5%
O=C(Nc1ccc(Cl)c(Cl)c1)Nc1ccc([N+](=O)[O-])cn1	-47%[inhibitor]	0.1%	24	-1.2	-14%	-7	-6%
CC(=O)C1C(c2ccc([N+](=O)[O-])cc2)C2C(C)=NN=C2CC1(C)O (configuration not stated)	-3%[15.4 µM]	-3.6%	-10	0.9	20%	21	-1%
COc1ccc(CCN2CC(C(=O)NCCN3CCNC3=O)CCC2=O)cc1 (configuration not stated)	u	-2.4%	12	2.0	19%	73	13%
Cc1ccc([C@H]2N[C@]3(CCCN(Cc4ccc(F)cc4)C3=O)[C@H]3C(=O)N(C)C(=O)[C@@H]23)cc1	u	0.3%	x	x	x	12	x
COC(=O)C[C@H]1C=C[C@@H](C(C(=O)OC)C(=O)OC)CN1C(C)=O	x	0.4%	x	x	x	31	12%
Cn1c(=O)c2cn3ncccc3c2n(C)c1=O	x	x	9	-3.8	10%	x	x
O=C(NCc1ccccc1)C(c1ccccc1)N(C(=O)c1csnn1)c1ccccc1 (configuration not stated)	u	x	6	3.7	16%	1	-14%
CC(=O)Nc1ccc(S(=O)(=O)NC(C)C(=O)NCC(c2ccco2)N2CCCCC2)cc1 (configuration not stated)	18%	-0.4%	13	x	x	11	8%
COc1ccccc1-n1c(-c2cc(-c3ccco3)[nH]n2)n[nH]c1=S	12%	-7.0%	9	7.6	50µM*	7	-1%
O=C(Cn1nnc(-c2ccccc2)n1)OCc1ccccc1	-4%	0.5%	x	1.9	-8%	-9	-4%
CCOc1ccc(C(=O)Nc2cccc3cccnc23)cc1	4%[15.4 µM]	0.1%	-6	2.5	8%	5	-5%
COc1ccccc1NS(=O)(=O)c1cc(NC(=O)c2ccncc2)ccc1N1CCOCC1	-3%	25µM*	6	6.1	79µM*	9	4%
CCC(C)S(=O)(=O)c1snnc1C (configuration not stated)	12%	0.2%	-1	-1.1	1%	17	3%
Cc1sc2nc(CSc3nc4ccccc4c(=O)n3CCCN3CCOCC3)[nH]c(=O)c2c1C	18%	-3.0%	u	u	-14%	-9	12%
CCOC(=O)c1c(N)sc2c1CCCC2=O	34%[15.4 µM]	x	-1	1.4	4%	0	0%
Cc1cc(N2CCc3ccccc32)n2ncnc2n1	-14%	0.2%	x	x	x	8	-5%
O=C1C2C3C=CC(C4CC34)C2C(=O)N1c1nccs1 (configuration not stated)	-18%	1.0%	7	5.8	-4%	-8	13%
Cc1nc2ccccc2c(=O)n1/N=C/c1ccc(C(C)C)cc1	29%	0.1%	0	-3.5	-13%	2	-6%
CC(C)(C)NC(=O)C(c1ccccn1)N(C(=O)C1CSC(=O)C1)c1cccc(F)c1 (configuration not stated)	-1%	x	13	3.7	15%	-15	12%
Cc1ccc(O)c(Nc2ncnc3ccc([N+](=O)[O-])cc23)c1	-2%	0.9%	6	0.1	4%	-6	-13%
CCN(CC)S(=O)(=O)c1ccc(-c2ccc(S(=O)(=O)N(CC)CC)cc2)cc1	-23%	-2.8%	-12	-4.9	6%	36	-16%
O=C(NCC(c1ccco1)N1CCN(c2ccccc2F)CC1)C(=O)NC1CCCCC1 (configuration not stated)	0%[15.4 µM]	-2.9%	1	x	x	4	7%
O=C1C2C3C=CC(C3)C2C(=O)N1Cc1ccc(CN2C(=O)C3C4C=CC(C4)C3C2=O)cc1 (configuration not stated)	-27%	-0.3%	3	3.5	15%	-11	1%
Nc1ccc(S(=O)(=O)Nc2nccs2)cc1N=Nc1ccccc1[N+](=O)[O-]	-27%	x	x	x	x	13	-19%

2 entries from above, as labelled records:
> O=C(Cn1nnc(-c2ccccc2)n1)OCc1ccccc1
  gsp ag = -4%
  ClpP mod = 0.5%
  TRPV1 PAM = x
  Menin MLL FP FL = 1.9
  Sfp PPTase inh = -8%
  TRPML1 inh = -9
  gsp antagonist = -4%

> CCOc1ccc(C(=O)Nc2cccc3cccnc23)cc1
  gsp ag = 4%[15.4 µM]
  ClpP mod = 0.1%
  TRPV1 PAM = -6
  Menin MLL FP FL = 2.5
  Sfp PPTase inh = 8%
  TRPML1 inh = 5
  gsp antagonist = -5%

New compounds follow.
SMILES	gsp ag	ClpP mod	TRPV1 PAM	Menin MLL FP FL	Sfp PPTase inh	TRPML1 inh	gsp antagonist
COc1cnc(-c2ccccn2)[nH]c1=O	19%[15.4 µM]	x	-2	0.8	10µM*	32	11%
CCCC(=O)Nc1nnc(C2CCCO2)s1 (configuration not stated)	22%[15.4 µM]	-0.4%	-4	3.0	-24%	-1	-14%
Cc1nc(SCC(=O)NC2CCS(=O)(=O)C2)c2c3c(sc2n1)CCC3 (configuration not stated)	16%[15.4 µM]	-0.4%	x	x	x	-3	-11%
Cn1cc2cccc([N+](=O)[O-])c2n1	-38%[inhibitor]	x	-2	-5.8	24%	-4	17%
CCCNC(=O)c1noc2c1CCc1cc(OC)ccc1-2	3%	-12%	-10	-3.0	-2%	x	-5%
NCCSc1c(-c2ccc(F)cc2)[nH]c2ccccc12	-18%	3.9%	3	6.4	0%	-5	-12%
CCCCCn1cnnc1SCC(=O)c1ccc2c(c1)OCO2	26%	-0.6%	u	x	x	-8	1%
COC(=O)C1=C[C@@H](C(=O)OC)C2C3=C(C(=O)[C@@]2(CC(C)C)NC(=O)c2ccccc2)[C@H](C)n2c(=O)n(C)c(=O)n2[C@@H]3C1 (some centres not stated)	x	x	x	-1.4	5%	-9	x
Cc1cccc(OCCCC(=O)Nc2nccs2)c1C	u	x	0	-0.1	12%	-3	3%
O=C(COC(=O)/C=C/c1cccc(C(F)(F)F)c1)NC(=O)NC1CCCC1	-4%[15.4 µM]	-26%	-3	x	x	-2	10%
CC1Cc2ccccc2N1c1nc(C2CC2)nc2c1nnn2Cc1ccccc1 (configuration not stated)	17%	7.1µM*	-14	4.8	-7%	2	-1%
COc1ccccc1/C=C(\NC(=O)c1ccc(OC)c(OC)c1)C(=O)Nc1ccc([N+](=O)[O-])cc1	4%[15.4 µM]	x	9	1.9	13%	-17	7%
Cc1ccc(CNC(=O)CSc2nnc3c(n2)[nH]c2ccc(F)cc23)cc1	8%[15.4 µM]	x	7	x	-4%	-17	15%
Cc1ccc(C(=O)CSc2nc(N)cc(=O)[nH]2)cc1	4%	0.9%	-11	0.9	1%	2	-1%
COc1cc(C(CCN2CCOCC2)c2c(OC)cc(OC)c3c(C)cc(=O)oc23)cc(OC)c1OC (configuration not stated)	-2%	-12%	u	-0.2&-0.8	5%&3%	2&10	16%
COc1ccc(NC(=O)c2cc3ccccc3o2)cc1	18%	-2.3%	5	0.2	3%	-13	-9%
Cc1sc2cc(-c3cccc([N+](=O)[O-])c3)c(-c3cccc([N+](=O)[O-])c3)c[n+]2c1C	22%[15.4 µM]	4.0%	9	3.4	19%	-13	22%
CN(C)c1ccc(C(=O)NCc2ccc3c(c2)OCO3)cc1	2%[15.4 µM]	-3.3%	-1	-0.9	24%	13	1%
Cc1cc(-c2cccc([N+](=O)[O-])c2)nc2ccccc12	5%[15.4 µM]	0.4%	4	1.1	-18%	-1	-15%
CCCCOc1cc(C(=O)NCCN(CC)CC)c2ccccc2n1	x	4.8%&4.4%	u	0.2	-16%&-1%&0%&15%	0&0	2%&11%
CCc1ccc(NC(=O)CCc2nc3cccnc3n2Cc2ccc(OC)cc2)cc1	0%	0.4%	-12	3.8	-1%	-5	9%
O=C(COC(=O)c1ccc(Cl)nc1)NCCC1=CCCCC1	24%[15.4 µM]	x	-6	0.3	-7%	12	1%
COCC(C)n1c(C)cc(C(=O)CN2C(=O)NC3(CCCCC3C)C2=O)c1C (configuration not stated)	27%	0.6%	4	0.4	9%	26	-16%
O=C1CN(C(=O)c2ccccn2)c2ccccc2N1	8%	-0.9%	7	-1.5	6%	-1	0%

Single records, as listed above. Values in the order: gsp ag | ClpP mod | TRPV1 PAM | Menin MLL FP FL | Sfp PPTase inh | TRPML1 inh | gsp antagonist
Shown for O=C1CN(C(=O)c2ccccn2)c2ccccc2N1 : 8% | -0.9% | 7 | -1.5 | 6% | -1 | 0%
Shown for CCOc1ccc(C(=O)Nc2cccc3cccnc23)cc1 : 4%[15.4 µM] | 0.1% | -6 | 2.5 | 8% | 5 | -5%
Shown for CCC(C)S(=O)(=O)c1snnc1C (configuration not stated) : 12% | 0.2% | -1 | -1.1 | 1% | 17 | 3%
Shown for O=C(COC(=O)/C=C/c1cccc(C(F)(F)F)c1)NC(=O)NC1CCCC1 : -4%[15.4 µM] | -26% | -3 | x | x | -2 | 10%
Shown for Cc1nc2ccccc2c(=O)n1/N=C/c1ccc(C(C)C)cc1 : 29% | 0.1% | 0 | -3.5 | -13% | 2 | -6%

Only Sfp PPTase inh, gsp antagonist and gsp ag, for 2 of the compounds above:
Structure,Sfp PPTase inh,gsp antagonist,gsp ag
COc1cnc(-c2ccccn2)[nH]c1=O,10µM*,11%,19%[15.4 µM]
CCCC(=O)Nc1nnc(C2CCCO2)s1 (configuration not stated),-24%,-14%,22%[15.4 µM]

The order is random; any-hit rate near 4.9%.
